# LANA-H2A inh: blocks KSHV LANA binding to histone H2A/H2B; actives 0.6% (n = 320,000); AID 2629; cell-free LANA-H2A/H2B peptide, fluorescence polarization; Q9QR71; inhibition, % (test concentration not listed); in the data active = inhibition mostly above about 10%, no sharp cut-off; inactive = mostly below about 6.7%;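 note: stock transfer was 7.5 nL into about 10 µL; 0% = median of vehicle wells and 100% = median of positive control wells; one replicate is shown; the record names a cut of 25% in any replicate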
# Vif TR-FRET: HIV-1 Vif–A3G interaction blockers – biochemical, TR-FRET, GST-Vif 1-94, biotin-A3G peptide, dose response retest, primary screen (AID 1117319); TR-FRET GST-Vif / biotin-A3G peptide binding; higher % means a stronger effect; test concentration not given here; strong numbers were not always called active; actives 0.57% (n = 260,000); inhibition, %, or IC50 in µM where a hit was titrated;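 active = above the screen mean plus three standard deviations and confirmed in dose response; inconclusive = results disagree or hit not tested in dose response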;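 note: Vif residues 1-94 fused to GST binding biotinylated APOBEC3G peptide 110-148; 0% = full assay without inhibitor and 100% = GST in place of GST-Vif; retest series ran down from 100 µM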
# Beta2AR agonist: human beta-2 adrenergic receptor agonism by FAP. P07550. Am2.2-beta2AR cells, FAP receptor internalization, flow cytometry; reference of the scale not given here. response, % (no concentration beside the values). actives 0.43% (n = 340,000). AID 504454;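 active = response above a set limit, near 3 SD of response in nonfluorescent compounds, cut at about 42% in these data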;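 note: stock transfer was 100 nL into about 11 µL; a reference agonist was the positive control; negative values mostly stem from fluorescent compounds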
# HNF4A DNA FP: change in binding of human HNF4 alpha to DNA; AID 1224865; HNF4a-FITC DNA binding, fluorescence polarization, 1 h; actives 0.3% (n = 360,000); activity change, % at 10 µM; P41235; in the data active = activity change above about 30%, passing the limit was not always enough;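 note: controls were the assay level and a saturating level of protein; the project sought stronger binding though the title names inhibitors; some compounds called inactive have numbers as strong as hits; positive values seem to mean higher polarization but the record does not say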
# Target sequence (P41235 whole entry, looked up): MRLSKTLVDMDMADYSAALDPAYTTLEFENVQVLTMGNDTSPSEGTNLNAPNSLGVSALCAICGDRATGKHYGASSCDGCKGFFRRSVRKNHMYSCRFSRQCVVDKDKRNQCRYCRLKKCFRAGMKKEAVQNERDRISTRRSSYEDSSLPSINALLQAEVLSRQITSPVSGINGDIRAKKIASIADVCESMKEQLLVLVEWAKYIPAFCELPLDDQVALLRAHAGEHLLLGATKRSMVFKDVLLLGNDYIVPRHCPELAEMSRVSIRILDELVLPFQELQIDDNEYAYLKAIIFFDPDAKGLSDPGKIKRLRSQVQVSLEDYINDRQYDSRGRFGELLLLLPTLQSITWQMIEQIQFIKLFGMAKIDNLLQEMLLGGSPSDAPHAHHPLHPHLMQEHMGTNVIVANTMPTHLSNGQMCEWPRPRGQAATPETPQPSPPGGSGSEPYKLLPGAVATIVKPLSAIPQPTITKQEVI
# UCH37 DUB inh: human UCH37 deubiquitinating enzyme inhibition. Q9Y5K5. purified proteasome/UCH37, Ub-AMC cleavage fluorescence. inhibition, % (test concentration not listed). actives 0.33% (n = 330,000);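 active = mean of two replicates above 20%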;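 note: 0% = compound-free wells with enzyme and 100% = wells lacking proteasome; stock transfer was 100 nL into about 20 µL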
# Target sequence (Q9Y5K5 whole entry, looked up): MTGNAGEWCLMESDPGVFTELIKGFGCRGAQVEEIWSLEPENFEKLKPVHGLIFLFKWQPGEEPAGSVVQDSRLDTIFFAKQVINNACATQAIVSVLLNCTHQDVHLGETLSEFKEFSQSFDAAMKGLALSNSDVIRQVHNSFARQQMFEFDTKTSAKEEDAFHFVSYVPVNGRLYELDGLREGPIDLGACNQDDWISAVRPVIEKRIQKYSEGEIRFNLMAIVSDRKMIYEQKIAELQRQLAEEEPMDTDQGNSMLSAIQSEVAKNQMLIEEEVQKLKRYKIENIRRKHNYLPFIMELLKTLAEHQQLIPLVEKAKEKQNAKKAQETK
#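 Material: Human UCH37 enzyme supplied as purified proteasome complex | Schedule: 30 min compound-proteasome preincubation then 25 min substrate reaction, room temperature | Detection: AMC fluorescence from Ub-AMC cleavage, excitation 355 nm, emission 460 nm | Benchmarks: Wells without proteasome as full block, compound-free enzyme plus substrate as uninhibited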
# Ecoli growth: E. coli growth inhibition | Escherichia coli growth, OD600, 23 h; stronger effect = lower value | actives 0.21% (n = 330,000) | OD600 absorbance (test concentration not listed) | AID 1053175;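 active = OD600 absorbance below the run mean of sample wells minus 3.6 SD, in any replicate, cut at about 0.56 in these data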;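 note: stock transfer was 300 nL into about 60 µL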
# A1 inh: inhibitors of the anti-apoptotic protein A1, read as caspase activation. MEF A1-2A-BIM cells, Caspase-Glo 3/7 luminescence, 3 h; percent of clofoctol response, vehicle zero. caspase activation, % (concentration not given with the values). actives 0.066% (n = 330,000);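 active = over half of replicate activation scores above 10%, or exactly half above 10 with the replicate mean above 10; inconclusive = replicate mean below 10 yet half the replicates above 10; inactive = over half of replicates below 10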;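 note: wells of about 30 µL received 50 nL stock; many hits fall short of the cut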
# An asterisk follows results filed as active; i = inactive; ? = inconclusive; . = not tested or not shown.
SMILES,LANA-H2A inh,Vif TR-FRET,Beta2AR agonist,HNF4A DNA FP,UCH37 DUB inh,Ecoli growth,A1 inh
Cc1ccc(CNC(=S)Nc2ccc(NS(=O)(=O)c3ccc(C)cc3)cc2)cc1,2.3,.,3.7,0.7,4.7,0.718,0.7
COc1ccc(C(CCNCc2ccc(OC(C)C)cc2)C(C)C)cc1 (stereo unspecified),0.9,-3.5%,19.2,1.2,.,.,-0.3
Cc1ccc(N2C(=O)C3N=NN(CC(=O)N4N=C(c5cccc6ccccc56)CC4c4ccccc4)C3C2=O)cc1 (stereo unspecified),5.6,6.6%,4.3,5.5,-50.3,0.738,0.4
CC(=O)N1C(=O)N(C)C2C1N(C)C(=O)N2C(C)=O (stereo unspecified),-1.1,3.0%,.,.,.,.,-0.1
CN(C)/C=C/C(=O)c1cnc(-c2ccccc2)s1,-2.3,-5.8%,-2.3,2.5,13.4,0.612,-0.3
Fc1ccc(NC(=S)Nc2ccc(F)c(Cl)c2)cc1Cl,-3.1,5.7%,15.7,1.7,2.1,0.495*,1.6
Cc1cc(C(=O)CSc2nnc(Cc3ccccc3)o2)c(C)n1Cc1ccc2c(c1)OCO2,0.0,0.5%,-1.8,1.3,3.1,0.718,-0.6
N#CCc1ccc(NC(=O)Cn2c(=O)oc3ccccc32)cc1,-3.3,.,-6.2,-1.0,2.4,0.651,0.1
O=C(OC1CCOC1=O)c1cc(S(=O)(=O)N2CCOCC2)c(Cl)cc1Cl (stereo unspecified),-0.8,2.1%,10.1,4.2,2.5,0.692,0.0
COC(=O)c1ccccc1NC(=O)Cn1c(CCC(=O)O)ccc1-c1cccs1,-0.9,13.9%,-3.2,-0.6,-2.5,0.683,0.0
O=C(Cc1cccs1)NCc1ccccc1F,-5.8,-2.8%,-0.9,1.0,0.1,0.735,0.4
COc1cc(NC(=O)CN2C(=O)NC(C)(c3ccc4ccccc4c3)C2=O)c(C)cc1[N+](=O)[O-] (stereo unspecified),2.7,3.1%,6.6,-2.5,4.1,0.717,-0.3
COc1cccc(-n2nnc3c(=O)n(Cc4cccc(F)c4)cnc32)c1,-5.7,30.5%,4.8,-6.6,4.0,0.66,-0.9
Cc1cc(OCC(=O)OCC(=O)NC2CCCCCC2)ccc1Cl,-4.0,-7.5%,5.0,-3.7,-1.6,0.691,0.7
CCOc1ccc(CNC(=O)C2CCN(C(=O)N3CC(C)Oc4ccccc43)CC2)cc1 (stereo unspecified),-0.4,.,4.0,-0.3,5.3,0.786,-0.4
O=C(Cn1cnc([N+](=O)[O-])c1)NCc1ccc(F)cc1,0.1,1.6%,2.5,1.6,3.7,0.708,-1.1
O=C(NCc1ccccc1CN1CCCC1)c1cc2ccccc2o1,.,-18.7%,4.1,5.3,-0.5,0.65,0.1
O=C(NCc1cccs1)c1cc(S(=O)(=O)N2CCCCC2)ccc1Cl,-3.0,-4.6%,-5.9,0.6,1.6,0.674,0.0
O=C1[C@@H]2[C@H]3CC[C@H](C3)[C@@H]2C(=O)N1O,5.8,12.3%,1.4,-0.2,6.2,0.661,-1.0
COC(=O)C1=C(O)C2(C(=O)O)CC(C(=O)OC)=C(O)C(C(=O)O)(C1)C2,-2.9,26.3%,9.4,-2.2,1.6,0.687,2.3
C/C(=C\C(=O)N1CCc2ccccc21)C(=O)O,-2.7,9.2%,0.6,-0.8,3.3,0.675,0.0
COC(=O)CCc1sc(Nc2ccccc2)nc1-c1ccc(OC)cc1,0.6,.,-1.0,-4.2,0.9,0.682,-0.1
CC1(C)CC[C@]2(CO)CC[C@]3(C)C(=CCC4[C@@]5(C)CC[C@H](O)[C@@](C)(CO)C5CC[C@]43C)[C@@H]2C1 (stereo partly specified),-0.5,.,3.9,-2.5,0.9,.,1.2
CCCCOc1ccc(/C=N/NC(=O)c2nnn(-c3nonc3N)c2C)cc1,0.2,.,-0.1,2.9,.,.,-0.9
CCOc1ccc(N2C(=O)C3CCCN3C2=S)cc1 (stereo unspecified),.,-12.3%,-3.8,-2.5,0.7,0.65,1.2
COc1ccc(/C=C2\SC(=O)N(CC(=O)NNC(=O)c3ccccc3O)C2=O)cc1,-2.3,6.8%,4.3,0.5,-13.5,0.714,0.0
NC(=O)[C@H]1CC2(CC(c3cccc(NC(=O)COc4ccc(Cl)cc4)c3)=NO2)CN1C(=O)c1ccc(Cl)cc1 (stereo partly specified),4.4,15.2%,24.7,5.6,1.4,.,0.5
Cc1ccccc1OCC(=O)N/N=C/c1sc(=O)n(Cc2cccc(C(=O)O)c2)c1Cl,-3.8,21.0%,8.6,3.3,.,.,-0.1
CCCCn1c(=O)[nH]c2nc3cc(N)ccc3nc2c1=O,84.8*,.,-8.6,-86.8,7.8,0.669,-0.4
O=C(COC(=O)CN1C(=O)c2ccccc2C1=O)Nc1ccccc1[N+](=O)[O-],0.1,-5.2%,1.6,-3.3,-2.9,0.691,-0.1
CS(=O)(=O)c1ccc(NC(=O)c2ccccc2-n2cnnn2)cc1,-2.4,-8.8%,3.5,-0.8,-0.2,0.672,-0.8
O=C(Nc1c2c(nn1-c1ccc(F)cc1)CS(=O)(=O)C2)c1ccc2c(c1)OCO2,2.2,.,0.7,2.8,3.6,0.715,0.1
COc1cccc(CNC(=O)c2cc(S(=O)(=O)N3CCOCC3)cn2C)c1,1.5,.,12.8,4.5,2.6,0.669,0.2
NC(=O)CN1C(=O)C(=O)N(Cc2cccc(C(F)(F)F)c2)C1=O,-2.1,-2.2%,-0.8,-1.7,1.8,0.69,-0.2
CC1CN(S(=O)(=O)c2ccc(C(=O)N(C)C3CCCCC3)cc2)CC(C)O1 (stereo unspecified),0.1,-2.2%,1.7,-7.1,0.7,0.657,-0.3
Cc1ccc(C(=O)OCC(=O)NC2CCS(=O)(=O)C2)c(C)c1 (stereo unspecified),-7.6,.,-4.4,0.2,1.1,0.649,0.7
COCC(=O)Nc1ccc(-c2cn3cccnc3n2)cc1,-3.8,-3.4%,7.3,4.8,i,0.715,0.0
Cn1c(CCCOc2ccc(Cl)cc2Cl)nnc1SCC(=O)Nc1nccs1,2.2,0.1%,-25.8,-2.3,1.4,0.74,-0.4
CCOC(=O)/C(C#N)=C/C=C1/C=CC=CN1C,0.7,4.0%,-5.4,9.2,20.2*,0.669,-1.1
OCCOCCn1c2ccccc2c2ccccc21,2.8,12.1%,3.6,-0.2,2.7,0.711,1.1
C=CCN1C(=O)c2ccc(C(=O)N(C)CC(=O)Nc3ccc(OCC)c(OCC)c3)cc2C1=O,.,2.0%,-0.2,-0.2,2.5,0.709,1.6
CC(=O)Cc1nsc(NC(=O)c2cc(-c3ccccc3Cl)oc2C)n1,3.0,1.9%,2.9,0.5,3.3,0.772,-0.4
COc1cccc(NC(=O)CN(C)C(=O)CSC(=S)N2CCCC2)c1,-2.6,4.2%,-5.6,-2.0,1.0,0.638,0.4
COc1ccc(N2CCN(C(=S)Nc3ccc(C)cc3)CC2)cc1,8.4,-6.4%,-5.0,-4.5,6.0,0.728,-0.4
CCSc1nnc(NC(=O)CN2C(=O)N(C)C3(CCCCC3)C2=O)s1,.,-7.2%,-3.8,-0.7,1.7,0.699,.
Cc1cc2ccccc2n2c(SCC(=O)NCC3CCCO3)nnc12 (stereo unspecified),-1.0,-1.5%,.,.,-0.3,0.7,0.2
O=Cc1ccccc1OCc1ccc2c(c1)OCO2,1.4,9.4%,1.7,0.0,4.1,0.596,-8.7
FC(F)(F)c1ccc(C2[C@H]3CN(Cc4ccc(-c5ccccc5)cc4)[C@H](c4ccccc4)C34CC2(c2ccccc2)C4)cc1 (stereo partly specified),-2.3,.,.,.,5.0,.,-0.3
Cc1[nH]c2ccccc2c1C(=O)COC(=O)C1CC(=O)N(Cc2ccccc2)C1 (stereo unspecified),-1.9,5.9%,9.2,-1.0,1.0,0.675,0.5
COc1ccc(OCC(O)CN(C)C(=O)/C=C/c2cccc([N+](=O)[O-])c2)cc1 (stereo unspecified),-2.0,-4.1%,5.5,0.4,1.5,.,1.2

# For reference, part of the list above:
SMILES,LANA-H2A inh,Vif TR-FRET,Beta2AR agonist,HNF4A DNA FP,UCH37 DUB inh,Ecoli growth,A1 inh
Cc1[nH]c2ccccc2c1C(=O)COC(=O)C1CC(=O)N(Cc2ccccc2)C1 (stereo unspecified),-1.9,5.9%,9.2,-1.0,1.0,0.675,0.5
COc1ccc(OCC(O)CN(C)C(=O)/C=C/c2cccc([N+](=O)[O-])c2)cc1 (stereo unspecified),-2.0,-4.1%,5.5,0.4,1.5,.,1.2

# (more compounds)
SMILES,LANA-H2A inh,Vif TR-FRET,Beta2AR agonist,HNF4A DNA FP,UCH37 DUB inh,Ecoli growth,A1 inh
O=C(Cn1cccn1)N1CCCC(Nc2ccc(F)c(F)c2)C1 (stereo unspecified),-0.1,2.2%,-2.2,-3.0,2.5,0.707,-0.1
CCOCCCn1c(=S)[nH]c2cc(C(=O)NCCc3ccccc3)ccc2c1=O,0.3,-11.9%,0.0,-1.6,1.4,0.729,0.8
CCOC(=O)C1CCCN(C(=O)c2ccc3oc(Cc4ccccc4)nc3c2)C1 (stereo unspecified),3.6,.,-7.5,0.5,2.9,0.705,-3.5
CC(NC(=O)CCNC(=O)c1ccccc1Cl)C1CC2CCC1C2 (stereo unspecified),-5.4,.,-1.6,1.8,4.3,0.681,-0.4
O=S(=O)(c1ccccc1)c1cnn2c(C(F)(F)F)cc(-c3ccccc3)nc12,2.1,1.7%,-5.2,-1.7,i,0.757,0.7
CNS(=O)(=O)c1cccc(C(=O)OCC(=O)c2c(N)n(C)c(=O)n(C)c2=O)c1,-1.5,?,3.4,1.5,1.0,0.661,1.1
Cc1ccc(-c2cc(C(=O)NCc3ccc4c(c3)OCO4)no2)cc1,14.3,6.8%,-2.6,-1.1,3.4,0.742,0.0
COc1ccc(C2=C(c3ccc([N+](=O)[O-])cc3)C(=O)OC2)cc1,0.3,8.7%,-8.0,-0.5,-0.3,0.724,0.0
CCNC(=S)Nc1ccc(Cl)c([N+](=O)[O-])c1,6.1,7.4%,-3.1,-0.6,.,.,1.3
Cc1nc(NC(=O)CSc2nc3ccccc3s2)sc1C(=O)N(C)C,-8.3,.,-5.4,-0.6,2.0,0.662,1.7
O=C(/C=C/Nc1ccc(S(=O)(=O)Nc2ncccn2)cc1)c1cccs1,-2.7,4.9%,5.0,2.4,-5.1,0.686,-0.2
CCC(CC)c1nnc(NC(=O)c2c(-c3ccccc3)noc2C)s1,-1.6,2.9%,-0.8,0.2,2.1,0.747,0.0
CCN(CC)S(=O)(=O)c1ccc2[nH]c(=O)cc(C(=O)Nc3ccc(C)cc3)c2c1,4.3,4.5%,7.2,3.7,4.6,0.734,0.6
O=C(COC(=O)/C=C/c1ccc(C(F)(F)F)cc1)NCC1CCCCC1,-5.3,-2.4%,5.4,-6.0,1.7,0.654,1.0
Cc1ccc(C(=O)Cn2nnc3c(sc4nc5c(c(-c6ccccc6)c43)CCC5)c2=O)cc1,5.7,5.5%,-2.3,0.8,-2.9,0.683,-0.4
CCOC(=O)CN(C(=O)COc1nc(C)cc(C)c1C#N)c1ccc(F)cc1,1.0,4.2%,-12.7,3.6,-1.4,0.643,-0.1
CN(C)/C=C/C(=O)c1ccccc1,2.1,2.1%,0.6,-2.0,14.4,0.689,0.6
Cc1ccc(C(=O)N2CCN(c3ccc(F)cc3)CC2)cc1S(=O)(=O)N1CCCCC1,-1.7,.,6.3,1.3,1.3,0.687,-0.9
COc1ccc(OC)c(NC(=O)c2c(NC(=O)CCC(=O)O)sc3c2CCCCC3)c1,-4.8,.,-2.6,1.7,6.5,0.674,-1.5
CCCCCCCC(=O)Nc1ccc(S(=O)(=O)Nc2nccs2)cc1,-2.1,.,6.5,-6.3,1.1,0.721,0.3
CCCCN(C(=O)CSCc1c(C)noc1C)c1c(N)n(CCCC)c(=O)[nH]c1=O,0.9,-1.7%,0.4,0.8,5.4,0.635,-0.6

# Screening results from PubChem BioAssay.
